# CSC inhib – cancer stem cell viability inhibitors, primary screen, luminescence; AID 2717, 2010; 300,000 tested, 1.1% active; cancer stem cell-like cells viability; inhibition, % at 7.5 µM;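 active = mean at 75% or more and at least half the replicates too; inconclusive = mean and replicates disagree; tested in HMLE shEcad cells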;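 note: 0% = median of negative and 100% = median of positive control wells; the first replicate is given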
# PABP polyA inh – PABP poly(A) RNA binding inhibitors, primary screen, biochemical, fluorescence polarization, uHTS. Polyadenylate-binding protein 1 (Homo sapiens), P11940. inhibition, % at 35 µM. 290,000 tested, 1% active;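 active = 50% or more with normal probe brightness, or confirmed in later tests; inconclusive = above 50% with abnormal brightness, or retests that disagree; inactive = below 50% or failed in later tests; about a fifth of its hits are not listed in these tables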;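 note: calls also rest on retests at 20 µM and on dose response follow-up; controls were probe without protein and protein plus probe with vehicle; some compounds called inactive have numbers as strong as hits; many hits fall short of the cut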
# Target sequence (P11940 whole entry, looked up): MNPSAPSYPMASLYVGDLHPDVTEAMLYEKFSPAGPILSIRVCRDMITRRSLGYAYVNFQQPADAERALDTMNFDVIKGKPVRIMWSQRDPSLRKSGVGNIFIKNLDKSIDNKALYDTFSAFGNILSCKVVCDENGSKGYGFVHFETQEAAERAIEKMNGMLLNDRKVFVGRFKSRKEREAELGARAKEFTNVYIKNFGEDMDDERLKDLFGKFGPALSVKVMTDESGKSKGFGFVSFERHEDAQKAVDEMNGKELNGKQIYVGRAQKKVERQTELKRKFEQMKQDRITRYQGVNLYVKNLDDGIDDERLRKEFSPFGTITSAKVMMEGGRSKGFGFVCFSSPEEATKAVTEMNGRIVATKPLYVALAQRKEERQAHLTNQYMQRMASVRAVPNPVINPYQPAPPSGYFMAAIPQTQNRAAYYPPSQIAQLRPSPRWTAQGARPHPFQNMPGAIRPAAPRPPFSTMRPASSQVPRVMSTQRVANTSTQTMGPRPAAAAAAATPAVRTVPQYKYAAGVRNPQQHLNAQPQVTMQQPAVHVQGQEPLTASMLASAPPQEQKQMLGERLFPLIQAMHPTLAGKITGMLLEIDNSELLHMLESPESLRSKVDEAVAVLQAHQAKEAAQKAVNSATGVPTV
# MT1-MMP act inh – blockers of MT1-MMP proenzyme processing, primary screen, HT1080 RFP-PRO-GFP cells, GFP/RFP fluorescence. Matrix metalloproteinase-14 (Homo sapiens), P50281. GFP/RFP ratio fluorescence, overnight; percent of plate control window, DMSO zero. GFP/RFP ratio change, % at 20 µM. 360,000 tested, 0.061% active. AID 651647, 2012;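 active = GFP/RFP ratio change of at least 30% with cell ATP level not reduced by more than half and red fluorescence within 50% of control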; note: strong numbers were not always called active
#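 Material: RFP-PRO-GFP reporter HT1080 cells. Dosing: single-point 20 µM compound, 1% DMSO. Controls: DMSO and RFP-L50D-GFP cell wells. Timing: cells overnight before dosing, compound overnight, 37 °C, 5% CO2. Measure: GFP/RFP fluorescence ratio.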
# UUG fidelity – modulators of yeast start codon fidelity, primary screen, whole organism, S. cerevisiae, single point, plate reader; S. cerevisiae UUG-firefly luciferase reporter, luminescence/redox ratio; activity score, % at 18.7 µM; 350,000 tested, 0.13% active; AID 602363, 2012;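 active = replicate mean at a twofold rise or more, about +100% in these data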;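 note: firefly luciferase made from a UUG start codon reports start codon fidelity; reporter light over untreated wells divided by growth signal over untreated wells; some hits fall short of that in this replicate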
# HIV Env fusion – inhibitors of HIV-1 Env-driven cell-cell fusion, primary screen, HeLa-JRFL effector, CEM21 target cells, luciferase; inhibition, % at 12.3 µM; 360,000 tested, 1.1% active; AID 651610, 2012;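 active = mean replicate inhibition score of at least 50 and every replicate individually at or above 50; inconclusive = only one of the two criteria met; inactive = mean below 50 and not all replicates reaching 50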;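 note: 0% = plate neutral controls and 100% = maraviroc near 300 nM; one replicate is shown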
# Rce1 inhib – yeast Rce1p protease inhibitors, primary screen, biochemical, fluorescence, cell-free homogeneous; yeast membranes, quenched prenylated peptide cleavage fluorescence; 290,000 tested, 0.27% active; CAAX prenyl protease 2 (Saccharomyces cerevisiae (strain ATCC 204508 / S288c)), Q03530; calls only;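 active = fall in fluorescence gain of 50% or more versus controls, with final raw signal at or below 3038400; inconclusive = same 50% fall but final raw signal above 3038400; inactive = fall in fluorescence gain under 50%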;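 note: plate controls were neutral control wells for no effect and wells lacking membranes for full effect; tested at 10 µM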
# eIF4H inh – human eIF4H binding inhibitors, primary screen, translation initiation inhibitor project, biochemical, uHTS, fluorescence polarization | Eukaryotic translation initiation factor 4H (Homo sapiens), Q15056 | eIF4H fluorescence polarization binding assay | inhibition, % at 35 µM | 290,000 tested, 0.94% active | AID 2012, 2009;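 active = 50% or more with normal probe brightness, or confirmed in later tests; inconclusive = above 50% with abnormal brightness, or retests that disagree; inactive = below 50% or failed in later tests; about a fifth of its hits are not listed in these tables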;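 note: calls also rest on retests at 20 µM and on dose response follow-up; 0% = protein and probe with vehicle and 100% = probe without protein; strong numbers were not always called active; many hits fall short of the cut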
# eIF4H inh retest – second read-out of eIF4H inh, no call of its own (marks repeat the call); inhibition, %; compound at 20 µM; confirmation average;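 mean of two retest wells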
# PABP polyA inh retest – second read-out of PABP polyA inh, no call of its own (marks repeat the call); inhibition, %; compound at 20 µM; confirmation repeats;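 mean of two retest wells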
# MT1-MMP act inh RFP – further read-out of MT1-MMP act inh, marked with its call; RFP signal change, %; measured here: RFP expression control read;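 0 = vehicle wells; hits needed this value within 50% of zero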
# * marks the source's active call; other numbers are inactive results; i = inactive; ? = inconclusive; . = no result given. Outcome played no part in choosing rows; overall some 2.9% were active at least once.
SMILES,CSC inhib,PABP polyA inh,MT1-MMP act inh,MT1-MMP act inh RFP,UUG fidelity,HIV Env fusion,Rce1 inhib,eIF4H inh,others
Cc1ccc(NS(=O)(=O)c2cccs2)cc1S(=O)(=O)N1CCCCCC1,0,-3,-3,1,.,7,i,-9,
C=CC[C@@H](CC(=O)OC(C)(C)C)C(=O)OC[C@@H]1CCCN1C(=O)[C@@H](CC=C)CC(=O)N[C@H](CO)Cc1ccccc1,1,.,16,-7,11,-1,.,.,
OCCC1CN(CC#Cc2ccccc2)CCN1C1CCCC1 (stereo unspecified),-3,5,1,0,-18,2,i,2,
Fc1ccc(NC(=S)N2CCCC2)cc1Cl,-1,-7,0,1,.,5,i,7,
CC(=O)Nc1ccc(OCCC[n+]2cccc(C(=O)[O-])c2)cc1,-16,73,0,2,-7,-19,i,7,eIF4H inh retest=-4;PABP polyA inh retest=1
c1ccc2sc(N3CCCN(Cc4nc(-c5cnccn5)no4)CC3)nc2c1,1,-9,-1,-9,13,21,i,-14,
CN(C)S(=O)(=O)c1ccc2c(c1)C(=O)c1cc(S(=O)(=O)N(C)C)ccc1CC2,10,.,8,-7,-7,3,.,.,
Cc1ccc2cc(CN(Cc3ccco3)S(=O)(=O)c3c(C)ccc4nsnc34)c(=O)[nH]c2c1,-11,5,6,-2,-34,.,i,4,
COc1cccc(N(C(=O)Cn2nnc(-c3cccs3)n2)C(C(=O)NC(C)C)c2ccc(C)o2)c1 (stereo unspecified),-3,5,0,4,.,.,i,-2,
CN(C)c1c(N)c(=O)oc2ccccc12,-5,-1,-4,1,.,-16,i,-7,
O=C(NCc1ccccc1)c1cc(C2CCCCN2C(=O)c2ccc3c(c2)CCO3)on1 (stereo unspecified),.,.,0,-2,14,19,.,.,
CCOC(=O)C1(CC2CC2)CCN(Cc2cn(C)c3ccccc23)CC1,2,10,-6,-2,.,18,.,-2,
COc1ccc(OC)c(CCNC(=O)CC2(CC3=NS(=O)(=O)c4ccccc4N3)CCCC2)c1,-10,4,-3,-4,11,19,i,-2,
Cc1ccc(N2C(=O)c3ccccc3C2=O)cc1,4,-6,-1,1,-14,-19,i,-3,
CCOC(=O)c1c(CSc2cccs2)n(C)c2cc(Br)c(O)c(CN(C)C)c12,-18,10,-3,-5,7,85*,i,-5,
CCOc1ccccc1N1CCN(Cc2ccco2)CC1,-8,2,3,3,-12,.,i,2,
CCO[C@@H]1OC(C(=O)NCc2nc3ccccc3[nH]2)=C[C@H](c2csc3ccccc23)[C@H]1CCCO,-12,0,5,-6,-20,-6,i,-15,
COc1ccc(OC)c(NC(=O)c2ccc3c(c2)CCN3S(C)(=O)=O)c1,-15,-2,1,-1,-7,-14,i,-12,
CCOc1ccccc1NC(=O)CSc1nnc2ccc(-c3cccnc3)nn12,-5,-11,3,5,-26,2,i,1,
COc1ccc(OC)c(S(=O)(=O)n2cnc3ccccc32)c1,-10,5,3,1,-12,-3,.,4,
Cc1onc(C(=O)Nc2ccc3c(c2)OCO3)c1[N+](=O)[O-],1,1,-3,1,.,.,i,-3,
Cc1cccc(S(=O)(=O)C(C#N)c2nc3ccccc3nc2N2CC(C)OC(C)C2)c1 (stereo unspecified),32,107,-15,-15,-18,17,i,95,eIF4H inh retest=-6;PABP polyA inh retest=4
Fc1ccccc1NC(=S)N1CCN(C/C=C/c2ccccc2)CC1,-10,-10,1,-1,.,.,i,-8,
O=C1CCCCN1CCC(=O)N1CCCC(Nc2ccccc2)C1 (stereo unspecified),-1,0,1,6,-21,2,i,-12,
Cc1ccccc1C(=O)N1CCC2CC1c1cc(Cl)ccc12 (stereo unspecified),.,.,1,-3,-2,0,.,.,
Cc1ccc(S(=O)(=O)N(CC(O)CN2C(=O)NC(C)(C)C2=O)c2ccccc2)cc1 (stereo unspecified),-17,5,0,4,4,.,i,-1,
O=S(=O)(c1ccccc1)n1c(C(O)c2ccccn2)cc2ccccc21 (stereo unspecified),6,-3,-1,-3,.,.,i,7,
CC1(C)c2[nH]c3ccccc3c2C[C@@H]2C(=O)N(Cc3ccccc3Cl)C(=O)N21,-6,.,7,-5,-12,6,i,.,
O=C1CCC2(C(=O)O)Sc3ccccc3N12 (stereo unspecified),12,3,1,7,-11,-28,i,-11,
CSc1ccc(CN2C(=O)C(C)Oc3c(C(C)=O)cccc32)cc1 (stereo unspecified),.,.,-4,-9,0,2,.,.,

# The list goes on; it opens with the two that closed the last part.
SMILES,CSC inhib,PABP polyA inh,MT1-MMP act inh,MT1-MMP act inh RFP,UUG fidelity,HIV Env fusion,Rce1 inhib,eIF4H inh,others
O=C1CCC2(C(=O)O)Sc3ccccc3N12 (stereo unspecified),12,3,1,7,-11,-28,i,-11,
CSc1ccc(CN2C(=O)C(C)Oc3c(C(C)=O)cccc32)cc1 (stereo unspecified),.,.,-4,-9,0,2,.,.,
CCC1CSC(Nc2ccc(C(=O)/C=C/c3ccc(Br)cc3)cc2)=N1 (stereo unspecified),79*,-3,-8,-13,.,6,.,-1,
COCCNC(=O)C1(C)CCCN(C(=O)c2ccc(N(C)C)cc2)C1 (stereo unspecified),.,.,4,1,-4,2,.,.,
O=[N+]([O-])/C=C/c1cn(Cc2ccc(Cl)cc2)c2ccccc12,99*,-6,-6,-6,.,.,i,-5,
CC(CC(=O)NC(C)c1ccc2c(c1)OCCO2)c1ccccc1 (stereo unspecified),.,-7,2,5,-13,.,i,0,
Cn1c(=O)c(-[n+]2ccccc2)c([O-])c2ccccc21,-3,7,4,6,-11,.,i,15,
COCCn1c(SCC(=O)N(C(C)C)C(C)C)nnc1-c1cc2ccccc2cc1O,-4,-8,7,-2,-17,32,i,-2,
Cc1ccc(NC(=O)c2ccc(NCC3CCCO3)c([N+](=O)[O-])c2)cc1Cl (stereo unspecified),7,-7,-22,1,-6,.,i,?,
Cc1cc(=O)oc2c3c(cc(OCC(=O)Nc4ccc(CCO)cc4)c12)OC(C)(C)CC3,7,-10,2,-1,-8,.,i,-10,
CC(NC(=O)c1ccccc1F)C(=O)O (stereo unspecified),2,-1,3,10,-14,-37,i,-6,
CCc1nnc(NC(=O)C2CC(=O)N(c3ccc4c(c3)OCCO4)C2)s1 (stereo unspecified),-11,-10,-3,5,.,1,i,-8,
O=C(COC(=O)c1ccccc1)Nc1ccc(Cl)cn1,-10,-8,-7,1,.,15,i,-10,
Cc1cc(NC(=O)CSCC(=O)Nc2cc(C(F)(F)F)ccc2N2CCCC2)no1,-13,.,-1,-2,-21,13,i,.,
Cc1ccc(OCC(=O)N/N=C/c2cccn2C)cc1,-19,-2,4,4,3,-15,i,-7,
O=C(N/N=C/c1ccc([N+](=O)[O-])o1)c1ccncc1,-5,?,-1,-8,0,-8,i,?,
CN1C(=O)c2ccccc2Cc2c(NCc3ccccc3)ncnc21,.,.,6,-3,-4,-10,.,.,
CC(C)COC(=O)N1CCN(S(=O)(=O)c2ccc3c(c2)CCC3)CC1,.,.,-2,-7,-8,4,.,.,
CCOc1ccccc1NC1c2ccccc2C(=O)N1c1cccnc1 (stereo unspecified),-9,5,0,-1,-12,-26,i,-6,
COC(=O)C(CC(=O)c1ccc(Br)cc1)n1cccn1 (stereo unspecified),0,18,0,3,-7,5,i,-8,
COC(=O)C1(CCSC)NC(c2ccc(OC)cc2OC)C2C(=O)N(c3cccc(C(C)=O)c3)C(=O)C21 (stereo unspecified),-11,-6,-4,-1,-24,6,i,-2,
CCOc1ccc(S(=O)(=O)NC(C)C(=O)NCc2cccnc2)cc1 (stereo unspecified),10,2,-3,1,-7,-6,i,-13,
Cc1nnc2sc(SCC(=O)Nc3cccc(Cl)c3)nn2c1=O,-7,6,3,2,-13,11,i,-9,
CCn1c(C)nc([N+](=O)[O-])c1Sc1ccc(F)cc1,.,7,1,-2,.,8,i,4,
N#Cc1c(C(F)(F)F)cc(=O)n2c1[nH]c1ccccc12,63,16,-6,-32,-18,7,i,16,
Cc1cc(CN(C)C(=O)c2cc(COc3ccc(C)c(C)c3)on2)on1,-12,-8,-4,-3,-8,.,.,-9,
O=c1[nH]c(C2CCN(S(=O)(=O)c3ccccc3F)CC2)nc2c1nnn2Cc1ccc2c(c1)OCCO2,-7,.,-2,-1,-13,7,i,.,
CC(NC(=O)c1ccncc1)C(c1cccs1)N1CCOCC1 (stereo unspecified),0,-7,3,3,-8,.,i,-12,
Cc1cc(C(=O)Nc2cccc(C(=O)O)c2)oc1C,8,0,8,5,-82,.,i,4,
COc1cccc(C2c3[nH]c4ccccc4c3C[C@H]3C(=O)N(C4CCN(Cc5ccccc5)CC4)CC(=O)N23)c1 (stereo partly specified),-16,-1,-6,-7,-2,29,i,3,
Cc1nnc(SCC(=O)Nc2ccccc2F)n1-c1ccc(F)cc1,5,3,1,2,.,-1,i,-9,
COc1ccc(C(C)C)cc1S(=O)(=O)NCc1ccccn1,5,8,1,3,-17,10,i,-9,

# Overlap with the part before: 2 compounds, then new ones.
SMILES,CSC inhib,PABP polyA inh,MT1-MMP act inh,MT1-MMP act inh RFP,UUG fidelity,HIV Env fusion,Rce1 inhib,eIF4H inh,others
Cc1nnc(SCC(=O)Nc2ccccc2F)n1-c1ccc(F)cc1,5,3,1,2,.,-1,i,-9,
COc1ccc(C(C)C)cc1S(=O)(=O)NCc1ccccn1,5,8,1,3,-17,10,i,-9,
CC1(c2ccccc2)CC(c2ccccc2)=Nc2ccccc2N1 (stereo unspecified),0,14,-4,3,-8,.,i,6,
COc1ccc(C(=O)c2cnc(C(C)C)n2C)cc1,-16,4,1,-6,-19,.,i,4,
Cc1c(NS(=O)(=O)c2ccc(C(=O)NCc3ccc(F)cc3)cc2)c(=O)n(-c2ccccc2)n1C,.,.,0,-1,-2,-7,.,.,
CCOc1ccc(/C=N/NC(=S)NC2CC3CCC2C3)cc1 (stereo unspecified),7,10,2,2,-23,5,i,-8,
CCCCN(CC)Cc1c(O)ccc2c(-c3ccccc3)cc(=O)oc12,-14,10,-4,-1,.,29,i,3,
CCOC(=O)N1CCC(NC(=O)CN2C(=O)CSc3nc(C)cc(C)c32)CC1,6,0,2,2,-10,-2,i,-4,
FC(F)(F)c1cccc(N2CCCCC2)c1,.,.,3,3,-8,-4,.,.,
Clc1cccc(N/N=C/c2ccncc2)c1,-6,-6,2,-1,13,-37,i,-6,
O=[N+]([O-])c1ccc2oc(C(O)c3cccc(Cl)c3)cc2c1 (stereo unspecified),5,-8,2,2,-5,14,i,-8,
CC1=CC(C)(C)NC(=S)N1c1ccc(C)cc1,-11,3,-1,-6,-22,.,i,-10,
COc1cccc(N(C(=O)c2ccco2)C(C(=O)NC2CCCC2)c2ccc(N3CCOCC3)cc2)c1 (stereo unspecified),.,13,2,4,32,5,i,7,

# Source: PubChem
